# Compound activity as filed in PubChem.
# PABP polyA inh: blocks human PABP binding to poly(A) RNA | P11940 | fluorescence polarization | inhibition, % at 35 µM | 1% of 290,000 active | AID 2014;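 active = 50% or more with normal probe brightness, or confirmed in later tests; inconclusive = above 50% with abnormal brightness, or retests that disagree; inactive = below 50% or failed in later tests; about a fifth of its hits are not listed in these tables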;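 note: calls also rest on retests at 20 µM and on dose response follow-up; controls were probe without protein and protein plus probe with vehicle; some compounds called inactive have numbers as strong as hits; many hits fall short of the cut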
# HIV Env fusion: HIV envelope-mediated fusion inhibition; HeLa-JRFL Env/CEM21 cell fusion, luciferase; inhibition, % at 12.3 µM; 1.1% of 360,000 active; AID 651610;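 active = mean replicate inhibition score of at least 50 and every replicate individually at or above 50; inconclusive = only one of the two criteria met; inactive = mean below 50 and not all replicates reaching 50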;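 note: 0% = plate neutral controls and 100% = maraviroc near 300 nM; one replicate is shown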
# CSC inhib: cancer stem cell inhibition; cancer stem cell-like cells viability, luminescence; inhibition, % at 7.5 µM; 1.1% of 300,000 active; AID 2717;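 active = mean at 75% or more and at least half the replicates too; inconclusive = mean and replicates disagree; tested in HMLE shEcad cells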;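 note: 0% = median of negative and 100% = median of positive control wells; the first replicate is given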
# eIF4H FP inh: inhibitors of RNA binding by human eIF4H. Q15056. eIF4H fluorescence polarization binding assay. inhibition, % at 35 µM. 0.94% of 290,000 active;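 active = 50% or more with normal probe brightness, or confirmed in later tests; inconclusive = above 50% with abnormal brightness, or retests that disagree; inactive = below 50% or failed in later tests; about a fifth of its hits are not listed in these tables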;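 note: calls also rest on retests at 20 µM and on dose response follow-up; 0% = protein and probe with vehicle and 100% = probe without protein; strong numbers were not always called active; many hits fall short of the cut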
# Yeast UUG start: modulators of start codon recognition fidelity in yeast | S. cerevisiae UUG-firefly luciferase reporter, luminescence/redox ratio | activity score, % at 18.7 µM | 0.13% of 350,000 active;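 active = replicate mean at a twofold rise or more, about +100% in these data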;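 note: firefly luciferase made from a UUG start codon reports start codon fidelity; reporter light over untreated wells divided by growth signal over untreated wells; some hits fall short of that in this replicate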
# Rce1 inhib: inhibitors of yeast Ras-converting enzyme; Q03530; calls only; yeast membranes, quenched prenylated peptide cleavage fluorescence; 0.27% of 290,000 active; AID 2563;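 active = fall in fluorescence gain of 50% or more versus controls, with final raw signal at or below 3038400; inconclusive = same 50% fall but final raw signal above 3038400; inactive = fall in fluorescence gain under 50%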;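 note: plate controls were neutral control wells for no effect and wells lacking membranes for full effect; tested at 10 µM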
# Target sequence (Q03530 whole entry, looked up): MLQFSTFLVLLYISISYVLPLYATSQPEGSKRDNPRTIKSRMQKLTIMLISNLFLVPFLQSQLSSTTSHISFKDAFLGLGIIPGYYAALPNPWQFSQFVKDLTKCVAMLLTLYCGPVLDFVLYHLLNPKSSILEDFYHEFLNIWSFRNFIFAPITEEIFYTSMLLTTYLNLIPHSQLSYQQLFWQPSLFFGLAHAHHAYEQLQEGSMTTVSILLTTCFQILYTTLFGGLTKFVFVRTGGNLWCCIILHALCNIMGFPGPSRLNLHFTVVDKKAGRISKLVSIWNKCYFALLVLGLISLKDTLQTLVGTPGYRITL
# MT1-MMP act inh: blocks activation of human MT1-MMP; P50281; HT1080 RFP-PRO-GFP cells, GFP/RFP ratio fluorescence, overnight; percent of plate control window, DMSO zero; GFP/RFP ratio change, % at 20 µM; 0.061% of 360,000 active; AID 651647;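 active = GFP/RFP ratio change of at least 30% with cell ATP level not reduced by more than half and red fluorescence within 50% of control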; note: strong numbers were not always called active
#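 Assay system: HT1080 cells carrying an RFP-PRO-GFP reporter | Dosing: Single dose of 20 µM compound, 1% DMSO final | Incubation: Cells overnight before dosing, compound overnight, 37 °C, 5% CO2 | Evaluation: GFP/RFP fluorescence ratio | Control set: DMSO and RFP-L50D-GFP cell wells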
# eIF4H FP inh retest: recorded beside eIF4H FP inh, whose call it bears; inhibition, %; compound at 20 µM; confirmation average;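 mean of two retest wells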
# PABP polyA inh retest: second read-out of PABP polyA inh, no call of its own (marks repeat the call); inhibition, %; compound at 20 µM; confirmation repeats;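 mean of two retest wells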
# MT1-MMP act inh RFP: further read-out of MT1-MMP act inh, marked with its call; RFP signal change, %; measured here: RFP expression control read;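 0 = vehicle wells; hits needed this value within 50% of zero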
# * = called active by the depositor; i = inactive; ? = inconclusive; . = not tested or not shown; + = active, no number. Rows are unselected, and some 2.9% of all compounds hit somewhere here.
SMILES,PABP polyA inh,HIV Env fusion,CSC inhib,eIF4H FP inh,Yeast UUG start,Rce1 inhib,MT1-MMP act inh,MT1-MMP act inh RFP,others
CCOc1ccccc1N/C(=N/c1nc(C)cc(C)n1)NC(=O)Nc1ccc(Cl)c(Cl)c1,-1.1,.,4.2,-2.6,.,i,.,.,
CN(C)NC(=O)c1ccc([N+](=O)[O-])s1,0.1,14.1,-10.2,-2.2,.,.,-2.9,-1.4,
Cc1[nH]c2ccccc2c1/C=N/NS(=O)(=O)c1ccccc1,-4.4,-3.2,-8.4,2.6,.,i,1.7,2.5,
Cc1cc(NC(=O)CCC(=O)N(c2ccc(F)cc2)C(C(=O)NC2CCCC2)c2ccncc2)no1 (stereo not given),-7.6,.,-5.2,-2.7,-14.6,i,2.2,-0.2,
COc1ccc(NC(=O)CSc2nnc(-c3ccco3)n2N)cc1Cl,1.1,-3.8,-13.6,-4.5,-21.2,i,0.6,0.3,
Cc1cccc(N2CN(S(=O)(=O)c3cccc([N+](=O)[O-])c3)c3nc4ccccc4nc32)c1,.,7.7,-12.4,.,5.7,.,0.4,-11.2,
O=c1c2ccccc2nc2n1CCCCN2,-13.1,.,-17.0,1.1,-5.3,+,-2.5,-3.0,
O=C(CCNS(=O)(=O)c1ccccc1Cl)OCc1nnc(-c2ccccc2Cl)o1,.,-26.3,-10.8,.,.,.,-1.9,0.3,
CC1CCC2C(=O)N(c3cccc(C(=O)Nc4ccccc4Cl)c3)C(=O)C2C1 (stereo not given),7.2,7.7,-3.6,-14.4,-28.2,i,2.9,-0.6,
Cn1cccc1Cc1nnc(SCC(=O)NC2CCCCC2)n1-c1ccc(F)cc1,-5.5,3.4,-9.0,-2.9,-10.5,i,2.0,0.0,
CC12CCCCC1N(O)C(=O)C(=O)N2O (stereo not given),17.7,-4.5,-8.6,-3.6,.,i,12.0,15.7,
CC1CCCN(C(=O)CN2C(=O)c3ccccc3C2=O)C1 (stereo not given),-3.6,-39.4,10.2,-1.5,-13.4,i,10.5,3.8,
CCC(=O)N1CCc2cc(S(=O)(=O)NCCCN3CCN(Cc4ccccc4)CC3)ccc21,0.0,31.1,-14.6,-7.2,3.9,i,5.6,1.9,
Cn1cc(Br)c(C(=O)Nc2sc3c(c2C(N)=O)CCC3)n1,4.0,.,5.0,1.1,.,i,7.8,2.4,
COc1ccc(Cl)cc1C(=O)n1cnc2ccccc21,6.5,0.4,-14.6,0.1,-12.6,i,0.5,3.9,
Cc1ccc(S(=O)(=O)[N-]c2nc3ccccc3nc2-n2cc[n+](Cc3ccccc3)c2)cc1,5.7,-103.4,2.3,7.3,-5.7,i,-10.4,-2.7,
O=C(CN1C(=O)c2ccccc2C1=O)NCC(=O)OCC(=O)c1cccc([N+](=O)[O-])c1,-10.3,-4.6,-12.9,-0.3,-11.2,i,-3.6,2.1,
Cc1cccc(N2CCN(C(=O)c3ccc(CS(=O)(=O)c4ccccc4C)o3)CC2C)c1 (stereo not given),13.4,?,-10.0,13.5,12.2,.,29.3,-10.6,
O=C(O)c1cccc(S(=O)(=O)Nc2ccccc2N2CCOCC2)c1,3.4,-3.7,-19.0,2.1,-18.0,i,4.8,8.2,
CC1(C)CC(=O)C(C=Nc2ccccc2Sc2ccccc2)=C(O)C1,1.7,.,-5.8,-10.2,6.7,i,-1.5,0.4,
O=C(Nc1ccc2c(c1)OCO2)N1CCN(c2ccccc2Cl)CC1,-1.4,0.3,0.3,-1.3,10.6,i,-2.2,-4.4,
COc1ccc(OCC(=O)NCCCCCCNC(=O)COc2ccc(OC)cc2)cc1,4.6,-4.7,0.4,-0.7,0.0,i,1.8,0.2,
COc1ccccc1C(C)NC(=O)Cc1ccc(S(=O)(=O)N2CCOCC2)s1 (stereo not given),.,-6.5,-4.9,.,.,i,-4.1,1.4,
COc1ccc(CC(=O)Nc2ccccc2NC(=O)Cc2ccc(OC)cc2)cc1,8.3,-5.9,-1.9,-11.6,-0.7,i,1.6,2.0,
Cc1cccc(OCC2=NS(=O)(=O)c3ccccc3N2)c1,1.1,-55.7,7.8,-4.3,-24.1,i,-3.9,-1.5,
Cc1nn(CCC(=O)NCc2ccc(N(C)C)cc2)c(=O)c2nn(-c3ccccc3)c(C)c12,-4.9,26.0,-22.9,-14.3,1.4,i,-1.0,-0.7,
CCOC(=O)c1c(C)[nH]c(C(=O)NNC(=O)c2ccccc2)c1C,5.9,.,-5.9,-7.1,-31.1,i,0.6,5.3,
C=CCN1C(=O)c2ccc(C(=O)N3CCC(C(N)=O)CC3)cc2C1=O,-4.3,0.2,0.4,-2.1,-23.1,i,-2.2,2.2,
CC(C)c1nnc(NC(=O)CC(=O)Nc2ccccc2C(=O)O)s1,3.6,.,-7.1,-6.7,-8.1,i,3.0,8.8,
CC(=O)N1CCN(C(=O)c2cccc(S(=O)(=O)NCc3ccccc3)c2)CC1,.,0.4,8.8,.,.,i,4.8,3.4,
COc1ccc(N2CCN(C(=S)NCc3ccc(C)cc3)CC2)cc1,-10.6,-72.5,.,4.9,.,i,4.2,1.7,
CC(NCc1ccc(F)cc1)C(=O)Nc1cc(S(=O)(=O)N2CCCCC2)ccc1Cl (stereo not given),12.0,24.8,4.3,3.4,.,i,0.6,-4.8,
O=C(OC(C(=O)Nc1ccc([N+](=O)[O-])cc1Br)c1ccccc1)c1ccccc1 (stereo not given),6.4,25.8,2.5,-2.0,.,i,4.4,-3.4,
CCc1ccc(/C=c2\s/c(=C\C(=O)C(C)(C)C)[nH]c2=O)cc1,-4.0,.,66.8,-2.2,-27.5,i,-4.2,-7.5,
COc1ccc(OC)c(S(=O)(=O)N2CCN(c3c(C)cccc3C)CC2)c1,-16.7,.,12.8,59.2,-0.8,i,-7.8,2.4,eIF4H FP inh retest=2.2;PABP polyA inh retest=4.2
Cc1ccc(C(=O)Nn2cnnc2)cc1,5.7,13.7,-5.7,7.6,-26.0,i,-1.9,0.5,

# 3 entries out of the list, sorted by molecular weight, smallest number first.
SMILES,PABP polyA inh,HIV Env fusion,CSC inhib,eIF4H FP inh,Yeast UUG start,Rce1 inhib,MT1-MMP act inh,MT1-MMP act inh RFP,others
CCOC(=O)c1c(C)[nH]c(C(=O)NNC(=O)c2ccccc2)c1C,5.9,.,-5.9,-7.1,-31.1,i,0.6,5.3,
COc1ccc(CC(=O)Nc2ccccc2NC(=O)Cc2ccc(OC)cc2)cc1,8.3,-5.9,-1.9,-11.6,-0.7,i,1.6,2.0,
O=C(CCNS(=O)(=O)c1ccccc1Cl)OCc1nnc(-c2ccccc2Cl)o1,.,-26.3,-10.8,.,.,.,-1.9,0.3,

# Gathered by group: the entries above containing a thiophene ring, fused or not (3)
SMILES,PABP polyA inh,HIV Env fusion,CSC inhib,eIF4H FP inh,Yeast UUG start,Rce1 inhib,MT1-MMP act inh,MT1-MMP act inh RFP,others
CN(C)NC(=O)c1ccc([N+](=O)[O-])s1,0.1,14.1,-10.2,-2.2,.,.,-2.9,-1.4,
Cn1cc(Br)c(C(=O)Nc2sc3c(c2C(N)=O)CCC3)n1,4.0,.,5.0,1.1,.,i,7.8,2.4,
COc1ccccc1C(C)NC(=O)Cc1ccc(S(=O)(=O)N2CCOCC2)s1 (stereo not given),.,-6.5,-4.9,.,.,i,-4.1,1.4,

# Further records follow.
SMILES,PABP polyA inh,HIV Env fusion,CSC inhib,eIF4H FP inh,Yeast UUG start,Rce1 inhib,MT1-MMP act inh,MT1-MMP act inh RFP,others
COC(=O)c1ccc(C)c(NC(=O)Cn2c(C)csc2=O)c1,.,21.8,13.1,.,-8.4,.,-1.2,1.5,
COC(=O)c1cccc(COC(=O)c2cccnc2SC)c1,0.5,.,11.7,4.3,.,i,2.4,-0.5,
CCOC(=O)c1cnc2c(ccc3ccccc32)c1N,-46.2,-59.8,-13.2,-25.8,-22.5,i,-1.8,2.4,
C=CCN(C(=O)C1CSC2(C)CCC(=O)N12)c1nc(-c2ccccc2)cs1 (stereo not given),.,5.4,9.1,.,3.6,i,1.0,-6.0,
Cc1c(C)c2ccc(OCC(=O)Nc3ccccc3C(N)=O)cc2oc1=O,-7.7,.,-3.4,-13.6,-10.9,i,-0.7,2.1,
COc1ccc(C(=O)OC(C)CN2CCN(C)CC2)cc1 (stereo not given),-1.1,-12.8,-2.0,-6.5,-6.1,i,3.5,-3.1,
CC1CCC(NC(=O)CN(C)CC(=O)Nc2ccc(F)cc2)CC1 (stereo not given),.,.,-21.5,.,-9.7,.,0.2,-1.9,
O=C(N1CCOCC1)N1CCN(S(=O)(=O)c2cccc([N+](=O)[O-])c2)CC1,-0.4,-3.8,12.7,0.9,-24.0,i,3.9,-0.7,
CC(=O)OC1c2ccccc2C(=O)N1Cc1ccccc1Cl (stereo not given),-2.9,-7.3,0.4,-7.3,-5.2,i,1.1,-2.9,
CC(C)c1ccc(NC(=O)CSc2n[nH]c(=O)n2Cc2ccco2)cc1,1.8,-4.4,4.1,-7.8,15.7,i,8.6,-20.3,
CCc1cccc(CN2CCC(CNC(=O)Nc3ccc(Cl)cc3)CC2)c1,-8.4,-0.9,4.1,-5.7,.,i,-2.5,0.9,
CCOCC(=O)Nc1cccc(Br)c1,-0.1,.,2.3,7.1,90.7,.,-1.6,3.1,
COc1cc(OC)cc(C(=O)Nc2ccc(C(=O)Nc3ccccc3OC)cc2)c1,.,36.5,-11.4,.,-12.9,.,-0.2,-2.0,
COc1ccccc1NC(=O)Nc1cc(C(C)C)ccc1C,-2.7,11.9,.,-10.7,-14.5,i,1.6,1.1,
CN1C(=O)CC(N2CCN(CCN=CC3=C(O)CC(C)(C)CC3=O)CC2)C1=O (stereo not given),6.8,.,-8.7,2.4,-11.4,i,2.6,4.6,
COCCCNC(=O)c1cc(C)nc2ccc(F)cc12,7.4,.,-8.4,-1.7,.,i,2.5,5.5,
CC(=O)c1cn(-c2ccc([N+](=O)[O-])cc2)c(=O)n(C)c1=O,.,-16.6,-6.5,.,1.0,i,7.2,5.3,
O=S(=O)(c1cccc(S(=O)(=O)N2CCC(n3nnc4ccccc43)CC2)c1)N1CCCCC1,-7.1,-2.5,-5.5,-2.1,12.3,i,-0.7,-0.1,
Oc1ccccc1C1=NN(c2ccccc2)C(c2ccc(F)cc2)C1 (stereo not given),8.2,7.5,24.3,-3.6,-5.5,i,0.0,-3.4,
CC(=O)NCC(=O)NC(Cc1ccccc1)C(N)=O (stereo not given),3.5,.,-6.3,8.0,-14.3,i,1.3,0.4,
Nc1nc(COC(=O)c2ccc3c(c2)OCCO3)nc(Nc2ccccc2)n1,.,.,3.5,.,-9.7,.,3.0,0.6,
COc1ccccc1C(=O)Nc1ccc2c(c1)nc(CCNC(C)=O)n2C,-2.0,-11.1,-2.4,-4.7,-3.3,i,8.8,0.4,
COCC1CCCN(Cc2nc(C(c3ccccc3)c3ccccc3)no2)C1 (stereo not given),-7.1,-7.0,1.8,-11.0,-4.6,i,-3.9,-8.2,
CCNS(=O)(=O)c1ccc(NC(=O)c2cccnc2)cc1,-1.1,-51.6,-7.5,4.8,-11.7,i,.,.,
Cc1ccc(C(=O)Nc2nc3ccc(Cl)cc3s2)o1,.,-89.8,18.8,.,-19.3,i,2.6,-11.4,
